NPYLR7 ag – activates Aedes aegypti NPYLR7 receptor. activation, % at 10 µM. actives 0.15% (n = 270,000). HEK293T NPYLR7/Galpha15, GCaMP6s calcium fluorescence; in the data active = activation above about 40%;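 also: 0% = vehicle and 100% = reference agonist at the receptor; some compounds past the cut are filed as inactive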
NPYLR7 ag max-min – further read-out of NPYLR7 ag, marked with its call; activation, %; measured here: Max-Min RFU normalised activation; some inactives read as strong as hits;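 span of the calcium signal over five minutes; 0% = vehicle and 100% = native peptide agonist; compound fluorescence can raise it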
Starred values were filed as active, the others as inactive. Only part of the results is shown; the hit share may differ from the screen's.

Preview:
SMILES | NPYLR7 ag | NPYLR7 ag max-min
O=C(O)C(F)(F)C12OC3C4C5CC(C6C5C3C61)C42 (stereo not drawn) | 3 | 1
O=C(O)CCCc1cc(Cl)sc1Cl | 12 | -3
Fc1ccccc1-c1noc(-c2ccc(NCCc3cscn3)nc2)n1 | 21 | 10
Cc1cccnc1CN1CCN(Cc2cnc(-c3ccco3)nc2)CC1 | -1 | -3

The listing, from the first entry:
SMILES | NPYLR7 ag | NPYLR7 ag max-min
O=C(O)C(F)(F)C12OC3C4C5CC(C6C5C3C61)C42 (stereo not drawn) | 3 | 1
O=C(O)CCCc1cc(Cl)sc1Cl | 12 | -3
Fc1ccccc1-c1noc(-c2ccc(NCCc3cscn3)nc2)n1 | 21 | 10
Cc1cccnc1CN1CCN(Cc2cnc(-c3ccco3)nc2)CC1 | -1 | -3
O=C1NCC(=O)N2CCN(C(=O)CCc3cccnc3)CC12 (stereo not drawn) | 13 | 12
CCOC(=O)C1CCN(Cc2nc(-c3ccccn3)no2)CC1 | 11 | 2
O=C1CCc2cc(C3=NNC(=NCC(F)(F)F)SC3)c(F)cc2N1 | -2 | -2
CC(C)N(Cc1ccc(OS(=O)(=O)c2ccc(F)cc2)cc1)C(=O)c1ccc(Cl)cc1 | -10 | -3
COCC(=O)N1CCN(S(C)(=O)=O)C[C@H]1C(=O)N[C@H]1CCCNC1=O | -11 | -18
O=C(CCN1CCC2(C=Cc3ccccc32)CC1)Nc1cccnc1 | 6 | -3
CCN(CC)c1ccc(NC(=O)c2c3c(nn2C2CCS(=O)(=O)C2)CCC3)cc1 (stereo not drawn) | 9 | 9
Cc1ccccc1C(=O)Oc1ccc(/C=N\n2c(=O)c(C(C)(C)C)nn3cnnc23)cc1 | -4 | -7
NC(=O)c1ccc(NC(=O)CCN2C(=O)c3cccc([N+](=O)[O-])c3C2=O)cc1 | -5 | -9
O=C(C(Br)=CNc1cc(Cl)ccc1Cl)C(F)(F)F | 23 | 7
O=C(CN1CCc2ccccc2C1CO)Nc1ccc(OC(F)F)cc1 (stereo not drawn) | 2 | 1
COc1ccc(-c2nc3cc(OC)c(OC)cc3c(=O)[nH]2)c(OC)c1 | -7 | 413
Cn1cc(-c2nc(C(=O)OCC3CCCOC3)cs2)cn1 (stereo not drawn) | 1 | 46
Cc1ccc(-n2nc(C)c3c(=O)[nH]c(C(F)(F)F)nc32)cc1 | 4 | 4
CN(C)c1ccc(/C=N\n2c(=O)c(C(C)(C)C)nn3cnnc23)cc1 | 5 | 3
Cc1ccc(-n2cccn2)c(CN2CCN(Cc3ccsc3)C(CCO)C2)c1 (stereo not drawn) | 2 | -3
COc1cc(NC(=O)C(C)N2CCN(c3ccc(C(F)(F)F)cn3)CC2)cc(OC)c1 (stereo not drawn) | 1 | -3
CCN(CC)S(=O)(=O)c1ccc(Cl)c(C(=O)NC2CCCCCC2)c1 | 5 | -3
Cc1cccc(C(=O)N(C)CCC=C2c3ccccc3CCc3ccccc32)c1 | -9 | -15
CCOC(=O)c1c(C)nn(-c2ccc(C(=O)Nc3ccc(C(C)(C)C)cc3)cc2)c1C | -2 | -3
COc1ccccc1C(=O)N1CCC(C(NC(=O)c2ccccc2C)C(=O)N2CCCC2)CC1 (stereo not drawn) | 20 | 20

The list continues.
SMILES | NPYLR7 ag | NPYLR7 ag max-min
O=C(C1CCN(c2ccccc2[N+](=O)[O-])CC1)N1CCCCCCC1 | -6 | 10
Cc1ccccc1NC(=O)CC(=O)N1CCC(O)(Cn2ccnc2)CC1 | -1 | -2
O=C(CCl)N1CCN(S(=O)(=O)C=Cc2ccccc2)CC1 | -5 | -6
CCN(CC)CCNc1ncnc2sc3c(c12)CCCC3 | 4 | 2
C=CCn1c(SCC(N)=O)nnc1-c1ccco1 | 3 | -2
O=C(NCCc1ccco1)c1cc(=O)c2ccccc2o1 | 11 | 10
CC(C)Cc1nc(-c2ccc(CN3CCN(C(=O)C4=NNC(=O)CC4)CC3)cc2)no1 | 11 | 16
C=CCOc1cccn2c(N(C)C(=O)C(CC)CC)c(C)nc12 | -11 | -13
COc1cccc(N2CC(c3nc4ccccc4n3Cc3ccccc3OC)CC2=O)c1 (stereo not drawn) | 0 | -4
O=C(O)CC1CNCCN(C(=O)CCc2c[nH]c3ccccc23)C1 (stereo not drawn) | -2 | -4
CC1=NC2=C(C(=O)CC(c3ccccc3)C2)C(c2ccc(O)cc2)C1C(=O)OC1CCCC1 (stereo not drawn) | 4 | 10
S=c1oc2ccc(Cl)cc2n1CN1CCCC1 | 1 | 20
CCOC(=O)C(C)Oc1cc2occ(-c3nc(C)cs3)c(=O)c2cc1CC (stereo not drawn) | -6 | -12
Cc1cc(C)cc(-c2nc3ccccn3c2NC(=O)C2CCC2)c1 | -2 | 3
CC1CCCN(Cc2cccc(C(=O)Nc3nccs3)c2)C1 (stereo not drawn) | 3 | 3
O=C(Nc1ccc(N2CCN(C(=O)c3ccc(Cl)cc3F)CC2)nc1)c1ccccc1F | 24 | 14
Cc1cc(Cl)ccc1N=Cc1nc(-c2ccc(Br)cc2)oc1O | -1 | -8
Cc1nc2ccccn2c(=O)c1NC(=O)CC(c1ccccc1)c1ccccc1 | 4 | 1
Cc1ccc(C(O)=C2C(=O)C(=O)N(CCCN(C)C)C2c2ccc([N+](=O)[O-])cc2)cc1 (stereo not drawn) | 12 | 18
Fc1ccc(CN2CCCn3cccc3C2c2cccc(C(F)(F)F)c2)cc1Cl (stereo not drawn) | 19 | 23
CCCN1CCC(N(C)S(=O)(=O)C2Cc3ccccc3C2)CC1 | -1 | -2
N#Cc1c(-c2ccc(Br)cc2)c(C#N)c2nc3ccccc3n2c1N | 16 | 9
O=S(=O)(c1cccc2c(S(=O)(=O)N3CCCC3)cccc12)N1CCCC1 | 2 | 3
Cc1cc(N2CCOCC2)ccc1NC(=O)NCCc1cc(F)cc2c1OCOC2 | -2 | -2
Cc1c(C)[n+](=O)c(-c2ccco2)c(C)n1[O-] | -8 | -19

(more compounds)
SMILES | NPYLR7 ag | NPYLR7 ag max-min
Cc1ccc(Cl)c(NC(=O)CSc2n[nH]c(C(C)C)n2)c1Cl | 0 | 4
Cc1ccccc1Oc1cc(N(C)Cc2ccccc2)ncn1 | -13 | -10
Cc1nc2c(C#N)c[nH]n2c(=O)c1CC(=O)NC(c1ccccc1)C(C)C (stereo not drawn) | -3 | -2
Cc1nc2ccccc2n1C1CC(=O)N(c2ccc(Br)cc2)C1=O (stereo not drawn) | -5 | -4
Cc1ccc(N(C)C(=O)Cc2ccc3ccccc3c2)cc1 | -9 | -11
CCn1ncc(C(CC(=O)c2ccccc2)CC(=O)c2ccccc2)c1C | -4 | -8
O=S(=O)(Nc1cccc(S(=O)(=O)N2CCOCC2)c1)c1ccc2c(c1)OCCO2 | 3 | 2
COc1ccc(NC(=O)N2CC(=O)N3CCc4ccccc4C3C2)cc1OC (stereo not drawn) | -7 | 3
O=C(CSc1ncnc2c1nnn2Cc1ccccc1F)NC1CCCCC1 | 17 | 15
CCCn1ncc(C(=O)NCCN2CCc3ccccc3C2)c1C | 21 | 12
Cc1ccc(C)c(OCC(=O)OCN2CCN(c3ccc(C(F)(F)F)cn3)CC2)c1 | 16 | 7
O=c1c(=Cc2ccc3c(c2)OCO3)sc2nc3ccccc3n12 | 5 | 4
COc1ncnc(OC)c1C(=O)O | 3 | 2
CC(C)=CCOc1cccn2c(N(C)C(=O)CCC3CCCC3)c(C)nc12 | -4 | -12
CCc1ncc2c(n1)CN(C(=O)Cn1cnc3ccccc3c1=O)C2 | -3 | -2
C(=C\c1ccccc1)/Cn1nnc(-c2cccs2)n1 | -7 | -8
CSCCC(=O)NC(C)(C)c1ccc(C)cc1 | -4 | -6
COC(=NCC1CC1)NC(=O)c1ccc(OC)cc1 | -4 | -4
COCCN(CC(=O)N(Cc1ccc(F)cc1)Cc1ccco1)S(=O)(=O)c1ccc2ccccc2c1 | 4 | 13
C=CC[C@@H]1CC=C[C@@H](C)N1C(=O)c1ccc(NC(=O)c2ccco2)c(C)c1 | 2 | 8
O=C(Nc1ccc(Oc2ccccc2)cc1)c1cc2ccccc2oc1=O | 0 | 0
COc1cccc(CC(=O)Nc2cnc3cnc(-c4ccc(Cl)cc4)cn23)c1 | -3 | -9
CC(C)NC(=O)c1cccc2c1CCCN2S(=O)(=O)c1cc(F)ccc1F | 0 | -2
Cc1ccccc1C1=NOC(CN(Cc2cccc(Cl)c2)C(=O)c2cccc(F)c2)C1 (stereo not drawn) | 3 | 12
CC(c1cccs1)N(C)C(=O)CC(=O)NC12CC3CC(CC(C3)C1)C2 (stereo not drawn) | -1 | -1

Going on with the list.
SMILES | NPYLR7 ag | NPYLR7 ag max-min
Cc1ccc(CNC(=O)CC2CSc3nccc(=O)n32)cc1 (stereo not drawn) | -3 | -5
CCN(CC)C(=O)c1cc(NC(=O)Cc2ccccc2)ccc1N1CCCC1 | 5 | 6
CCOC(=O)C(c1cccc(OC)c1)C1C=CC(NC(=O)c2ccc(-c3ccccc3)cc2)C1 (stereo not drawn) | 25 | 22
CN(C(=O)c1ccc(F)cc1Cl)C1CCCCC1S(C)(=O)=O (stereo not drawn) | -7 | -6
COc1ccc(S(=O)(=O)c2c[nH]c3ccc(OC)cc3c2=O)cc1 | 5 | 4
O=C1NCCN2CCN(C(=O)CNS(=O)(=O)c3cccs3)CC12 (stereo not drawn) | 5 | -1
CC1CCN(c2nc(NCc3cccnc3)nc(N3CCOCC3)n2)CC1 | -4 | -10
O=C(NNC(=O)C12CC3CC(CC(C3)C1)C2)c1ccc(=O)[nH]n1 | -3 | -10
CCCCCC(=O)N1CCN(c2cc(Oc3ccc(Cl)c(C)c3)ncn2)CC1 | 10 | 9
CCCCCCCCCCCCCC(=O)NCC1CCN(c2nc(Cc3ccc(Cl)cc3)ns2)CC1 | 2 | -7
N#CCc1cc(-c2ccc3c(c2)OCO3)on1 | -6 | -4
CCCCNC(=O)C1(C)CCCCN1C(=O)c1cccs1 (stereo not drawn) | -7 | -6
O=C1NC(=S)N/C1=C\c1ccc(-c2ccccc2[N+](=O)[O-])o1 | -2 | 6
CCOc1cccc2c1OC[C@@H]1CN(CCOC)C(=O)CCN(S(=O)(=O)c3ccccc3)[C@H]21 | 30 | 29
Cc1ccc(NC(=O)[C@@H]2C[C@H](C(=O)O)CN(C(=O)c3ccccc3Cl)C2)cn1 | -1 | -2
CCOC(=O)Nc1ccc(NC(C)C(=O)NC2CCC(C)CC2)cc1 (stereo not drawn) | 0 | -3
CC(C(=O)O)n1c(-c2cccs2)n[nH]c1=S (stereo not drawn) | 0 | 1
CCOC(=O)c1cc2cc(NC(=O)C3=CC(C)(C)Oc4ccc(OC)cc43)ccc2o1 | 3 | 13
Cc1c(C(=O)NCCN(C)C)sc(=O)n1Cc1ccc(F)c(Cl)c1 | 11 | 4
O=C(CCCn1ncn2c(cc3occc32)c1=O)N1CCCCC1 | 2 | -1
O=C(c1sccc1Cl)N1CCOc2ccc(CN3CCN(c4ccccn4)CC3)cc2C1 | 15 | -1
Cc1ccccc1C(=O)Nc1ccnn1C1CCN(C(=O)c2cnccn2)CC1 | 4 | 2
O=C(COc1cccc2cccnc12)NCC1CCCCC1 | 2 | 4
CC(C)C(NCC(O)COc1ccccc1)c1nc(-c2ccc([N+](=O)[O-])cc2)no1 (stereo not drawn) | 12 | 3
c1ccc(C(c2ccccc2)c2noc3c2CN(C2CCSC2)CC3)cc1 (stereo not drawn) | 9 | -2

(list continues)
SMILES | NPYLR7 ag | NPYLR7 ag max-min
CC1(NC(=O)Cn2cc(C(F)(F)F)ccc2=O)CCS(=O)(=O)C1 (stereo not drawn) | 7 | 12
NC(=O)C1CCN(C(=O)CCc2nc3ccccc3n2-c2ccccc2)CC1 | -2 | -8
Cc1ccc(Cc2ccccc2C(=O)N2CCn3c(C(N)=O)cnc3C2)cc1 | 4 | 4
CC1(C)Cc2c(cnn2-c2ccc(F)cc2)C(NC(=O)Cn2cnc3ccccc32)C1 (stereo not drawn) | 5 | 1
O=C(c1ccc([N+](=O)[O-])cc1)N1CCN(c2nc(-c3ccccc3)c3cc(Cl)ccc3n2)CC1 | 1 | -3
Cc1cccc(-n2c(=O)c3ccccc3n(C(C)C(=O)NCc3cccc(C(F)(F)F)c3)c2=O)c1C (stereo not drawn) | 4 | 10
COc1ccc(CN(CCc2c[nH]c3ccccc23)C(=O)CN(CC(C)C)C(=O)Nc2ccc(Br)cc2)cc1OC | 5 | 16
COC(=O)C(C)(Cc1ccccc1)NC(=O)C1CC(=O)N(N(C)c2ccccc2)C1 (stereo not drawn) | -6 | -12
COCCNc1ncnc2c1c(-c1ccccc1)cn2-c1cccc(Cl)c1 | -1 | -2
CCOC(=O)N1CCN(C(=O)COC(=O)c2cc(Cl)c(O)c(Cl)c2)CC1 | -2 | -2
CC1CCCN(S(=O)(=O)c2ccc(-c3nc(C#N)c(N4CCc5ccccc5C4)o3)cc2)C1 (stereo not drawn) | 4 | 5
C=C(C)CN(CC)C(=O)c1cc2c(s1)-c1ccccc1OC2 | -5 | 6

Complete entries, looked up by structure.
Listed for `O=C1NCC(=O)N2CCN(C(=O)CCc3cccnc3)CC12` (stereo not drawn) → NPYLR7 ag: 13; NPYLR7 ag max-min: 12
Listed for `C(=C\c1ccccc1)/Cn1nnc(-c2cccs2)n1` → NPYLR7 ag: -7; NPYLR7 ag max-min: -8
Listed for `O=C(O)CC1CNCCN(C(=O)CCc2c[nH]c3ccccc23)C1` (stereo not drawn) → NPYLR7 ag: -2; NPYLR7 ag max-min: -4

Compound activity from PubChem BioAssay.
